gsp ag = agonists of gsp mutant (McCune-Albright syndrome) | gsp mutant cells, cAMP HTRF, 30 min; control for the full effect not named in the record | Potency, µM (top dose mostly 76.9 µM), without a hit: top-dose activation (cAMP increase), hits mostly activators | 340,000 tested, 0.13% active; active = well fitted activation curve with a large enough effect; inconclusive = small, poorly fitted or top-dose-only effect, or another doubt; inactive = no such curve, though single readings can be large or run the other way; cell line not stated here;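 also: phosphodiesterase inhibitor Ro 20-1724 added with compounds to block cAMP breakdown; potency is read from the fitted curve at half-maximal effect; nearly all actives have a fitted effect of over 60% in size; about a fifth of the inactives were tested at one dose only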
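Cells stably selected in G418 were plated at 2000/well, grown 16-24 hr, then given compounds in DMSO with the PDE inhibitor […] (300 uM solution added) for 30 min at 37C; cAMP was read by HTRF.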
TRPML1 blocker = human mucolipin-1 channel inhibition | Q9GZU1 | 390,000 tested, 0.02% active | TRPML1-inducible cells, Ca2+ dye fluorescence, FDSS; hits give low values; inhibition of EC80 agonist-evoked calcium signal | activity change, negative = inhibition, % (no concentration beside the values); in the data active means activity change below about -50%; inconclusive means about -30% to -50%; inactive means above about -30%;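 also: stimulus is agonist 54-4 at its EC80 concentration; % is scaled to controls: 0 for no effect and ±100 for the full control effect; compound concentration not given in the record; the text of the record puts the active cut at -80%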
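Tet-induced TRPML1-DL cells loaded with Ca8 no-wash calcium dye were read kinetically on FDSS. Compound addition was followed by EC80 agonist 54-4 (4 uM final); inhibition was read over 110 s.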
ClpP mod = qHTS Assay for Activators of ClpP; ATP-dependent Clp protease proteolytic subunit (Bacillus subtilis (strain 168)), P80244; purified B. subtilis ClpP, FRET peptide cleavage, 20 min; Potency, µM (highest dose often 57.5 µM), inactives show at the top dose activity change, negative = active; 340,000 tested, 1.9% active; active = well fitted falling curve with a large enough effect; inconclusive = small, poorly fitted or top-dose-only effect; inactive = no such curve, though single readings can be large or run the other way; also: potency is read from the fitted curve at half-maximal effect; the source files actives as falling curves though it sought activators and does not explain the sign; nearly all actives have a fitted effect of over 65% in size; many hits overshoot -100%
Target sequence (P80244 whole entry, looked up): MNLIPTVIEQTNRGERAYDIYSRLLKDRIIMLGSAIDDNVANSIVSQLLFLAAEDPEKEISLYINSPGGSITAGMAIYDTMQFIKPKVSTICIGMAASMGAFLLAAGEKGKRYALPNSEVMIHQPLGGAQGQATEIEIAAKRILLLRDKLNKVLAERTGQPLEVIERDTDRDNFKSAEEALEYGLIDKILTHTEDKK
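Buffer: 100 mM Tris/HCl pH8, 100 mM KCl, 0.05% low protease BSA, 2.5% glycerol, 0.01% Tween-20. ClpP 10 microg/mL final; 20 min RT; delta FRET normalized to ADEP and DMSO controls.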
Sfp inh = blocks B. subtilis Sfp PPTase activity | Q9F4F7 | Biochemical Sfp PPTase activity, qHTS | Potency, µM, for inactives: max response, negative = inhibition, hits mostly inhibitors | 310,000 tested, 3.5% active | AID 1490; active = well fitted inhibition curve with a large enough effect; inconclusive = small, poorly fitted or top-dose-only effect, or another doubt; inactive = no such curve, though single readings can be large or run the other way;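 also: the enzyme is Sfp with the accession as filed and its product quenches rhodamine fluorescence; potency is read from the fitted curve at half-maximal effect; 0% = enzyme reaction without inhibitor and -100% = no enzyme wells; top concentration of the series not given in the record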
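Fluorescence-quenching assay: 15 nM Sfp-PPTase preincubated 15 min at room temperature with compound, then 5 uM rhodamine-CoA and 12.5 uM BHQ-2-labelled YbbR peptide added. Fluorescence (ex 525/em 598 nm) read at start and after 30 min; difference gives rate.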
gsp antag = gsp mutant antagonism; Potency, µM (highest dose often 76.9 µM), for inactives: top-dose activity change, negative = inhibition, hits mostly inhibitors; gsp-mutant cells, cAMP HTRF, 30 min; control for the full effect not named in the record; 340,000 tested, 0.4% active; active = falling curve of any shape with a large fitted effect; inconclusive = falling curve, mostly with a smaller effect; inactive = flat or rising curve; cell line not stated here;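 also: intracellular cAMP measured with PDE inhibitor Ro 20-1724 present during compound exposure; potency is read from the fitted curve at half-maximal effect; % is scaled to controls: 0 for no effect and ±100 for the full control effect; nearly all actives have a fitted effect of over 65% in size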
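HTRF cAMP measurement after 30 min RT detection following 30 min, 37C compound treatment alongside […] (added as 300 uM solution) in G418-selected cells seeded at 2000/well and grown 16–24 h.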
TRPV1 PAM = potentiators of human vanilloid receptor 1 (TRPV1); Q8NER1; TRPV1-expressing cells, Fluo-8 calcium influx, capsaicin EC20 potentiation; host cell line not named in the record; control for the full effect not named in the record; potentiation, % at 8.33 µM; 320,000 tested, 0.02% active; AID 540277; active means potentiation above 80%; inconclusive means 30% to 80%; inactive means below 30%; also: 0% is about no effect
Target sequence (Q8NER1 whole entry, looked up): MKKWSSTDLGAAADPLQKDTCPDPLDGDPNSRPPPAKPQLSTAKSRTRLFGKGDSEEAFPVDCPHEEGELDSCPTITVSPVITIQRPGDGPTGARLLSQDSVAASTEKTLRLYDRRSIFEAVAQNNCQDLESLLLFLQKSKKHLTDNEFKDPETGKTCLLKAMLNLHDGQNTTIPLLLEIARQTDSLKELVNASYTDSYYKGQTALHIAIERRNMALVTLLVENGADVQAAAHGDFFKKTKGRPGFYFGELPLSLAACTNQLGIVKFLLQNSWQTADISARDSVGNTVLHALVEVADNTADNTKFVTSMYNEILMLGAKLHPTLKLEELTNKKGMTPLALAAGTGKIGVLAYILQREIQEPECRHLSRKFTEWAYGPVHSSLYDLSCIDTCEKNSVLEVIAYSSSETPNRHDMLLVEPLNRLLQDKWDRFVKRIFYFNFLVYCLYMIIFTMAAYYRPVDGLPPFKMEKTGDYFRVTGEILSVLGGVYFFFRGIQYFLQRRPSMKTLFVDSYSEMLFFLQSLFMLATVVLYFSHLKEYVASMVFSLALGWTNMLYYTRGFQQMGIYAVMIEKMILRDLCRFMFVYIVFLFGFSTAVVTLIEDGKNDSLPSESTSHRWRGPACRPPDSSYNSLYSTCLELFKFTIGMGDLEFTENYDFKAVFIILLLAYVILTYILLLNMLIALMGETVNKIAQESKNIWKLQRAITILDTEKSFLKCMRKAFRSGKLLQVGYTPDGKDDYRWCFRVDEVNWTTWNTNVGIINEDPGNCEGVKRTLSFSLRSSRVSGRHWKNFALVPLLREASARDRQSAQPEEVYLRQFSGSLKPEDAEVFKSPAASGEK
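TRPV1-expressing cells were cultured overnight at 35.5C and loaded with Fluo-8 calcium dye for 40 to 90 min at room temperature. After a 10 s baseline, compound was added and calcium influx was read kinetically for 3 min (ex 480/em 520 nm).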
Menin MLL FP FL = menin-MLL binding inhibition, fluorescein peptide | 290,000 tested, under 10 active | FP activity change, % at 61.4 µM | Fluorescence polarization, fluorescein-MLL peptide displacement from menin; inconclusive = falling polarisation curve, or a change in total fluorescence; inactive = total fluorescence flat and polarisation flat or rising; no compound was filed as active; the % refers to the polarisation; negative = inhibition;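 also: % of control where 0% means no effect; inhibitors lower the polarisation; unlabelled MLL peptide was the positive control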
Active calls of the source: *; u = inconclusive; x = not tested or not shown; & = joins results of further samples; [ ] = dose if it differs, or a comment.

SMILES	gsp ag	TRPML1 blocker	ClpP mod	Sfp inh	gsp antag	TRPV1 PAM	Menin MLL FP FL
COc1cc(OC)c(OC)cc1/C=N/NC(=O)c1ccc2nc[nH]c2c1	19.9%	-9.3	x	7.7%	-2.0%	x	0.9
c1ccc(Nc2nc(NCc3ccco3)c3ccccc3n2)cc1	12.4%[15.4 µM]	-14.5	-0.3%	15.8µM*	-31.3%	11.6	5.3
COc1ccc(C(=O)ON=C2c3ccccc3-c3ccccc32)cc1OC	-2.2%	46.6	-1.7%	-18.8%	5.1%	10.7	-1.3
COC(=O)C1N[C@@H]([C@@H](NC(=O)COc2ccccc2)C(=O)Nc2ccc(OC)cc2)SC1(C)C (stereo not given in full)	5.2%	20.1	-0.2%&1.6%	x	-6.4%	x	x
NC(=O)c1ccc(NC(=O)COC(=O)c2c3c(nc4ccccc24)/C(=C\c2cccs2)CCC3)cc1	9.2%	3.6	-7.1%	9.0%	-29.3%	-4.3	12.3
Cc1ccc(/C=C/C(=O)N2CCCC(C(N)=O)C2)o1 (stereo not given)	u	-1.9	-1.9%	17.8µM*	-2.1%	u	3.7
COc1cccc(OC)c1C(=O)OCC(=O)Nc1cccnc1Cl	-2.4%[15.4 µM]	-8.7	-1.0%	-0.9%	4.6%	5.6	-3.9
COc1ccc(Cl)cc1C(=O)OCC(=O)NCCNC(=O)COC(=O)c1cc(Cl)ccc1OC	19.3%	-3.3	-17.6%	8.4%	-1.5%	15.4	x
COc1ccc(Oc2cn[nH]c2-c2ccc(O)cc2O)cc1	-33.1%[inhibitor]	26.5	-3.1%	-5.7%	6.8%	-3.3	-0.9
Oc1ccc(C[C@H]2CNC(=S)N2CC2CCCN2C[C@H](Cc2ccc(O)cc2)N2C[C@H](Cc3ccc(O)cc3)N(CC3CCCCCC3)C2=S)cc1 (stereo not given in full)	x	3.7	-0.1%	x	u	x	x
C#CCN1C(=O)C(O)(CC(=O)/C=C/c2ccco2)c2ccccc21 (stereo not given)	-8.6%	7.2	-1.5%	35.5µM*	8.8%	1.0	7.6
COc1cc(C(=S)N2CCCC2)cc(OC)c1OS(=O)(=O)c1ccc(NC(C)=O)cc1	-7.1%[15.4 µM]	-7.8	-5.4%	35.5µM*	-1.4%	12.5	3.6
O=C(O)CS/C(=C\c1ccc(F)cc1)c1nc2ccccc2s1	x	x	x	27.3%	x	5.7	-0.1
OC1CCN(CC(O)C(F)(F)F)CC1 (stereo not given)	21.3%	-2.2	-2.2%	-6.0%	-8.4%	-6.9	-1.6
CCOC(=O)N/N=C\c1sccc1C	-21.7%	-8.9	x	19.7%	2.1%	0.2	1.1
CCn1c(CC(=O)Nc2ccc(C)cc2)n[nH]c1=S	-2.7%[15.4 µM]	-22.3	x	0.2%	13.0%	11.8	-0.2
Cc1ccc(C(=O)Nc2ccccc2C(=O)NC(Cc2c[nH]c3ccccc23)C(=O)O)cc1 (stereo not given)	8.8%	6.3	x	-1.4%	-16.0%	-0.4	-4.0
CCOc1ccc(/C=C2\SC(=O)N(c3ccc(O)cc3)C2=O)cc1OC	-28.5%	-15.2	-6.4%	-12.2%	-15.6%	-9.8	0.6
N#Cc1cc2c(cc1NC(=O)CCn1cnnn1)OCO2	-13.3%	6.6	-2.6%	7.2%	9.4%	5.5	-7.7
COc1ccc2c(c1)C(=O)N1[C@H]3c4cc(Br)ccc4OC[C@@H]3[C@H](c3ccccc3)[C@]1(C)C(=O)N2	x	-8.4	-27.1%	x	-12.5%	u	x
O=C(c1cc([N+](=O)[O-])cc([N+](=O)[O-])c1)N1CCOCC1	u	u	0.6%	12.4%	14.3%	1.2	2.3
Cc1sc2ncnc(OCc3nnc(-c4cccs4)o3)c2c1C	-11.4%[15.4 µM]	49.0	x	1.4%	-0.1%	3.2	9.9
Cc1[nH]nc(N2CCCCCC2)c1[N+](=O)[O-]	-15.6%	13.6	0.4%	13.2%	8.3%	27.9	1.2
O=C(CSc1nnc(-c2cccs2)o1)NCc1ccco1	19.3%[15.4 µM]	-1.7	x	10.3%	10.5%	0.4	1.8
O=S(=O)(Oc1ccccc1C(=S)N1CCOCC1)c1ccc(Cl)cc1	u	2.3	-2.0%	u	-7.6%	-10.9	x
CCOC(=O)c1c(C)n(-c2ccc(C)cc2)c2c(CC(C)=O)c(Br)c(OC)c(O)c12	-13.9%	8.4	-1.6%	11.9%	0.8%	5.6	-1.5
COc1ccccc1NS(=O)(=O)c1cccc(C(=O)NNC(=O)C(NC(N)=O)C(C)C)c1 (stereo not given)	17.1%	x	-2.3%	-13.4%	-16.3%	-7.0	-1.7
O=C(NN1C(=O)c2ccccc2NC1c1ccccn1)c1ccc([N+](=O)[O-])cc1 (stereo not given)	22.0%	-11.4	-1.9%	-7.3%	8.7%	20.5	4.1
O=S(=O)(Cc1ccc(Cl)cc1)c1ncc(CO)n1Cc1ccccc1	-15.4%	14.6	x	20.4%	0.0%	-6.1	-7.6
CC(=O)c1cccc(N(CC(=O)Nc2ccc(S(=O)(=O)N3CCOCC3)cc2)S(C)(=O)=O)c1	-1.4%[15.4 µM]	-3.2	1.1%	9.6%	-5.4%	5.3	x
CCn1c(Cn2nnc(-c3ccccc3)n2)nnc1SCC(=O)Nc1ccc(N(C)C)cc1	6.5%	-2.5	-7.1%	12.0%	-0.2%	21.1	-0.3
O=C(CNC(=O)c1ccc2c(c1)OCCO2)N=Nc1c(O)[nH]c2ccccc12	-34.3%[inhibitor]	-4.3	0.3%	9.4%	-6.5%	1.4	-0.7
Cn1c(=O)[nH]c(=O)c2c1nc(CN(Cc1ccccc1)Cc1ccccc1)n2CCN1CCOCC1	-2.4%	35.9	-2.6%	12.2%	-1.9%	-16.0	5.2
O=C1C2CCCCN2C(=O)N1CCN1CCN(c2cccc(Cl)c2)CC1 (stereo not given)	-37.1%[inhibitor]	-22.3	0.5%	x	7.3%	x	x
CC(OC(=O)CNC(=O)c1cccs1)C(=O)Nc1ccc(S(N)(=O)=O)cc1 (stereo not given)	3.5%[15.4 µM]	-7.4	-0.9%	x	4.3%	5.9	x
COC(=O)CN1C(=O)[C@H]2[C@@H](/C=C/c3ccccc3)N3C(=O)CN(CCO)C(=O)[C@@]3(Cc3ccccc3)[C@H]2C1=O	x	15.3	-3.5%	15.7%	7.9%	12.2	-2.5
CCCCCN(C(=O)CCC(=O)OCC(=O)N(C)Cc1ccc(C)cc1)c1c(N)n(CCCC)c(=O)[nH]c1=O	-2.5%	18.5	-1.0%	1.9%	-6.2%	17.7	x
CCOCc1cc(C)[nH]c(=O)c1C#N	-15.1%	3.4	u	16.4%	-3.6%	2.0	-2.3
COc1ccc(/C=C2\CCOC2=O)cc1	13.7%[15.4 µM]	33.3	-0.1%	20.2%&7.0%	1.7%	-8.3&6.7	-2.0&-0.6
Cc1cccc(-n2ncc3c2CCCC3NC(=O)c2cccs2)c1C (stereo not given)	-0.3%	-0.6	1.2%	x	x	x	x
Cc1cccc(CS(=O)(=O)Cc2ccc(C(=O)NCCCN3CCOCC3)o2)c1	11.9%	-8.7	28.2µM*	-20.7%	13.5%	-0.2	-1.7
CC1=C(C(N)=O)C(c2cccs2)n2nc(-c3cccc(Cl)c3)nc2N1 (stereo not given)	u	0.4	-2.3%	-10.0%	10.0%	8.5	1.1
Cc1cc2c3c(c1)C1(C(=O)N3C(C)(C)CC2C)C(C#N)=C(N)Oc2cc(O)ccc21 (stereo not given)	3.9%	34.8	-2.5%	-9.0%	-15.4%	-3.0	1.9
CCn1c(=O)c2c(nc3n2CCCN3c2cccc(C)c2)n(C)c1=O	1.4%[15.4 µM]	-10.3	x	7.3%	-18.9%	-2.1	-1.5
Cc1nn(-c2ccccc2)c(Cl)c1CN(C(=O)CCl)c1ccc(Cl)cc1	-4.7%	-3.1	-0.1%	-5.6%	-3.6%	8.4	1.8
O=C(NC(Cc1ccccc1)C(=O)O)OCc1ccccc1 (stereo not given)	-52.2%[inhibitor]	-7.2	1.2%	17.4%	11.1%	24.7	2.8
O=S(=O)(c1cccc(C(F)(F)F)c1)N1c2ccccc2-n2cccc2C1c1cccnc1 (stereo not given)	-23.7%	-7.0	-10.0%	x	x	x	x
CCN(CC)c1ccc(/C=N/NC(=O)c2cccc(S(=O)(=O)N3CCOCC3)c2)cc1	-0.6%[15.4 µM]	3.1	-2.2%	-16.9%	-7.6%	-26.8	16.3
Cc1ccc(OCC(=O)N2N=C(c3cccnc3)CC2(O)C(F)(F)F)cc1C (stereo not given)	-18.3%	45.9	-2.6%	18.2%	-13.5%	-8.8	1.4
CN(C)CCNC(=O)Cc1ncc(C(F)(F)F)cc1Cl	-4.3%[15.4 µM]	-14.1	x	1.5%	15.7%	u	1.5
Cc1cc(=O)[nH]c(SCc2cccc3ccccc23)n1	-1.2%[15.4 µM]	2.2	-0.9%	0.5%	-6.4%	8.6	0.7
O=C(CNS(=O)(=O)c1ccccc1)OCc1cccc([N+](=O)[O-])c1	-22.3%	-2.1	1.5%	-7.0%	-5.4%	15.2	1.7
Cc1cc(C(=O)NCc2ccc3c(c2)OCO3)n(-c2ccccc2)n1	-38.0%[inhibitor]	-2.3	-0.8%	13.6%	8.4%	x	2.7
CCCn1c(=NC(=O)CS(=O)(=O)c2ccccc2)sc2cc(S(C)(=O)=O)ccc21	-2.6%	-19.5	-1.7%	x	u	3.4	x
Cc1cc(OCC(=O)Nc2cccc(S(=O)(=O)N3CCCCC3)c2)ccc1Cl	-27.5%	12.8	0.7%	x	-16.4%	u	x
O=C(O)c1ccccc1C(=O)Nc1ccc(Oc2ccc3ccccc3c2)cc1	8.2%	38.6	x	13.9%	0.6%	28.2	1.8

Part of the list above, with each value named:
CCN(CC)c1ccc(/C=N/NC(=O)c2cccc(S(=O)(=O)N3CCOCC3)c2)cc1
  gsp ag = -0.6%[15.4 µM]
  TRPML1 blocker = 3.1
  ClpP mod = -2.2%
  Sfp inh = -16.9%
  gsp antag = -7.6%
  TRPV1 PAM = -26.8
  Menin MLL FP FL = 16.3
Cc1ccc(OCC(=O)N2N=C(c3cccnc3)CC2(O)C(F)(F)F)cc1C (stereo not given)
  gsp ag = -18.3%
  TRPML1 blocker = 45.9
  ClpP mod = -2.6%
  Sfp inh = 18.2%
  gsp antag = -13.5%
  TRPV1 PAM = -8.8
  Menin MLL FP FL = 1.4
